# miR-21 FLuc: raises the signal of a miR-21 reporter; HeLa miR-21 FLuc reporter, luciferase, 48 h; Potency, µM (highest dose often 38.3 µM), for inactives: at the highest dose reporter change, positive = more light; 340,000 tested, under 10 active; AID 2288; active = well fitted rising curve with a large enough effect; inconclusive = small, poorly fitted or top-dose-only effect; inactive = no such curve, though single readings can be large or run the other way;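 further: % of control where 0% means no effect; miR-21 action dims this reporter so a rising signal means less miR-21 action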
#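 HeLa cells endogenously expressing miR-21, stably carrying CMV-driven firefly luciferase with a downstream miR-21 binding site, 2000 cells/well. Titrations up to approximately 40 uM, 48 hours; luciferase luminescence read.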
# Active calls of the source: *; ? = inconclusive; [ ] = remark or other dose. These rows are one share of the data; the hit share may differ from the screen's.
SMILES,miR-21 FLuc
Cc1sc2ncn(CC(=O)N3CCN(c4ccccc4)CC3)c(=O)c2c1S(=O)(=O)N1CCN(c2ncccn2)CC1,0.0%
O=C(NCc1cccs1)c1ccc(CSc2nc3ccncc3n2Cc2cccc(F)c2)cc1,0.8%
Cc1ccc(S(=O)(=O)N(CC(=O)Nc2ccc3c(c2)OCO3)c2ccc(C)c(Cl)c2)cc1,1.9%
COc1cccc(NC(=O)c2cc3cccc(OC)c3o/c2=N\O)c1,-60.9%
Cc1cc(C)cc(NC(=O)C2CCN(S(=O)(=O)c3ccc4c(c3)oc(=O)n4C)CC2)c1,0.2%
COc1ccc(NC(=O)c2c(NCc3ccc(C)o3)sc3c2CCCCC3)c(OC)c1,-12.7%
O=C1Nc2cc(Cl)ccc2Oc2cc(Oc3ccccc3)ccc21,10.2%
O=C(c1ccccc1)c1cn(Cc2ccc(F)cc2)c2ccccc2c1=O,24.6%
COc1ccc(-c2noc(-c3ccc(NCC4CCCO4)c([N+](=O)[O-])c3)n2)cc1 (stereo not drawn),-1.2%
Cc1ccc(C)c(NC(=O)N(C)CCc2c(C)nn(C)c2C)c1,-6.5%
COc1cc2[nH]c(=O)n(CCCC(=O)N(C)Cc3ccccc3)c(=O)c2cc1OC,-18.0%
COc1ccccc1CNC(=O)c1c(O)nc2cc(C)ccn2c1=O,-1.5%
Cc1c(NC(=O)c2cccs2)cccc1-c1nc2cc(Cl)ccc2o1,-14.6%
COc1ccccc1OC(C)C(=O)Nc1cccc(-c2nc3ccccc3o2)c1 (stereo not drawn),?
CCCCOc1ccc(CNC(=O)c2ccc(-c3nc(CN4CCc5ccccc54)c(C)o3)cc2)cc1,-2.3%
O=C(CSc1nccn1-c1ccc(Cl)cc1)Nc1cccc2ccccc12,11.1%
CCCOc1cccc(C(=O)N(Cc2sccc2C)C2CCS(=O)(=O)C2)c1 (stereo not drawn),1.3%
CC1CCCCN1S(=O)(=O)c1ccc2c(c1)oc(=O)n2CC(=O)Nc1ccc(Cl)cc1 (stereo not drawn),-8.5%
CCCCNC(=O)CSc1nc2ccccc2nc1Cc1ccc(Cl)cc1,-1.3%
Cc1csc2nc(COC(=O)c3ccccc3NC(=O)COc3ccccc3F)cc(=O)n12,-10.0%
COC(=O)C(CCSC)NC(=O)C1CCN(c2ncnc3c2nc2n3CCCCC2)CC1 (stereo not drawn),0.0%
CCOc1cccc(NC(=O)c2sc3nc(-c4ccc(F)cc4)ccc3c2N)c1,-20.4%
CCCCN(CC)CCCn1cnc2c([nH]c3ccc(Cl)cc32)c1=O,1.6%
COc1ccc([C@]23Cc4cc(C#N)ccc4[C@H](O2)c2c(cc(C)n(Cc4ccccc4)c2=O)O3)cc1,-6.5%[7.66 µM]
Cc1ccc(-c2cc(-c3ccc4c(c3)NC(=O)CO4)nc3c2COc2ccccc2-3)cc1,-5.4%

# Laid out differently: two of the compounds above.
miR-21 FLuc | structure
-14.6% | Cc1c(NC(=O)c2cccs2)cccc1-c1nc2cc(Cl)ccc2o1
? | COc1ccccc1OC(C)C(=O)Nc1cccc(-c2nc3ccccc3o2)c1 (stereo not drawn)

# Gathered by group, those above containing fluorine (4)
SMILES,miR-21 FLuc
O=C(NCc1cccs1)c1ccc(CSc2nc3ccncc3n2Cc2cccc(F)c2)cc1,0.8%
O=C(c1ccccc1)c1cn(Cc2ccc(F)cc2)c2ccccc2c1=O,24.6%
Cc1csc2nc(COC(=O)c3ccccc3NC(=O)COc3ccccc3F)cc(=O)n12,-10.0%
CCOc1cccc(NC(=O)c2sc3nc(-c4ccc(F)cc4)ccc3c2N)c1,-20.4%

# (cont.)
SMILES,miR-21 FLuc
Cc1cccc(C)c1NC(=O)Cn1c(=O)n(CCC(=O)NCc2ccc3c(c2)OCO3)c(=O)c2sccc21,-0.5%
O=C(NCCc1ccc(F)cc1)C(=O)NCC(c1ccco1)S(=O)(=O)c1cccs1 (stereo not drawn),5.4%
Clc1ccccc1Nc1ncnc2c1nc1n2CCCCC1,-11.7%
CCOc1ccc(CNC(=O)c2cnc3sc(N4CCC(C)CC4)nn3c2=O)cc1OC,-0.5%
CCOc1cc(C2c3c(oc4ccccc4c3=O)C(=O)N2Cc2ccccc2Cl)ccc1O (stereo not drawn),-0.6%
Cc1ccc(NC(=O)CSc2nc(=O)n(Cc3ccccn3)c3c2CCC3)cc1F,5.7%
O=C(c1cccs1)c1cn(CCOc2ccc(Cl)cc2)c2ccccc12,-0.6%
CC(C)(C)C(=O)OCc1cc(=O)n2nc(C3CCCCC3)sc2n1,-45.7%
COc1ccc(N2CCN(C(=O)c3cc4c(=O)n(Cc5cccnc5)ccc4nc3C)CC2)cc1,-3.6%
CCOCCCNC(=O)C(c1ccc(OC)cc1)N(Cc1cccs1)C(=O)c1ccc(NC(C)=O)cc1 (stereo not drawn),23.8%
Cc1c(C(=O)Nc2cccc(F)c2)oc2c1-c1nn(Cc3c(F)cccc3Cl)cc1CC2,-6.3%
Cc1ccccc1OCC(O)Cn1c(=N)n(CCN2CCCCC2)c2ccccc21 (stereo not drawn),22.7%
COc1ccccc1NC(=O)Cn1c(=O)n(Cc2ccc3c(c2)OCO3)c(=O)c2oc3ccccc3c21,-2.7%
Cc1ccc(S(=O)(=O)N2CCCC(c3nc4c(nnn4Cc4ccc(OC(F)(F)F)cc4)c(=O)[nH]3)C2)cc1 (stereo not drawn),0.2%
O=C(CN1C(=O)CSc2ccc(S(=O)(=O)N3CCCC3)cc21)NCc1ccccc1Cl,-2.6%
CCOc1cccc(C2CC(=O)Nc3cc4c(cc32)OCCO4)c1 (stereo not drawn),20.6%
CCc1ccc(-n2c(SCc3nc(-c4cc(OC)ccc4OC)no3)nnc2-c2ccccc2)cc1,17.0%
COCCCNC(=O)CSc1nc2cc3c(cc2c(=O)n1CCCCCC(=O)NCCc1ccc(OC)c(OC)c1)OCO3,-8.1%
CCOC(=O)c1noc2ncnc(Nc3ccc(F)cc3F)c12,-11.0%
Cc1cc2oc(C(=O)Nc3c(C)n(C)n(-c4ccccc4)c3=O)cc(=O)c2cc1C,-5.4%
COCCCNc1nc2c(c(=O)n(C)c(=O)n2C)n1Cc1ccccc1,5.7%
Cc1ccc2[nH]c(=O)c3cc(C(=O)NC4CCC(C)CC4)sc3c2c1 (stereo not drawn),0.8%
CCOc1ccc(C2C(C(=O)Nc3ccc(OC)cc3)=C(C)Nc3nc(CCCO)nn32)cc1 (stereo not drawn),-5.5%
CCOC(=O)c1c(NC(=O)c2cc(=O)c3c(C)cc(C)cc3o2)sc(C)c1C,2.6%
CCC(=O)NNc1ncnc2c1cnn2-c1ccc(C)c(Cl)c1,-55.2%

# Another view of some results above.
mol	miR-21 FLuc
CCOC(=O)c1noc2ncnc(Nc3ccc(F)cc3F)c12	-11.0%
Cc1cc2oc(C(=O)Nc3c(C)n(C)n(-c4ccccc4)c3=O)cc(=O)c2cc1C	-5.4%
COCCCNc1nc2c(c(=O)n(C)c(=O)n2C)n1Cc1ccccc1	5.7%
Cc1ccc2[nH]c(=O)c3cc(C(=O)NC4CCC(C)CC4)sc3c2c1 (stereo not drawn)	0.8%

# (continued)
SMILES,miR-21 FLuc
CCOc1ccc(N2CC(NC(=O)C3CCCCC3)CC2=O)cc1 (stereo not drawn),-5.0%
CCc1ccccc1N(C)C(=O)c1cc2c(=O)oc3ccccc3c2s1,12.1%
CCCOc1ccc(C(=O)Nc2ccc3nn(-c4ccc(OC)c(Cl)c4)nc3c2)cc1,-3.0%
COc1cc(OC)c(NC(=O)N2CCSc3ccccc32)cc1Cl,22.4%
Cc1ccc(C)c(NC(=O)CN2C(=O)C3(SCC(=O)N3c3ccc(C)c(C)c3)c3ccccc32)c1 (stereo not drawn),14.4%
Cc1ccc2c(Sc3ccc(Cl)cc3)c(C(=O)N3CCCCC3)[nH]c2c1,-3.6%
Cn1c(=O)c2c(-c3ccccc3Br)n(Cc3ccccc3)cc2n(C)c1=O,-14.1%
Cc1cc(C)c(S(=O)(=O)Nc2ccc(-c3ccc(N4CCCCC4)nn3)cc2)cc1C,-3.2%
Cc1ccc2c(c1)NC(=O)c1cccnc1O2,-9.0%
Cc1ccc(CCNC(=O)c2ccc3c(c2)nc2n3CCCCC2)cc1,0.4%
COc1ccc(OC)c(NC(=O)c2nnn(CC(=O)Nc3ccc(C(C)C)cc3)c2N)c1,-0.2%
N=c1c(C(=O)NCC2CCCO2)cc2c(=O)n3ccccc3nc2n1CCCO (stereo not drawn),-6.7%
Cc1ccc(-n2nc(CO)c(C(=O)NCCO)n2)cc1,-19.6%
Cc1ccc(CN2CCCn3nc(C(=O)NC(C)C)cc3C2=O)cc1,-4.0%
Cc1ccc(-c2nnc3c4ccccc4c(C)nn23)cc1NC(=O)c1cccc(Br)c1,-9.6%
CCCCOc1ccc(-c2cc3c(=O)n(CC(=O)Nc4ccc(Cl)cc4Cl)ccn3n2)cc1,-1.2%
CCCn1c(=O)n(-c2ccccc2)c(=O)c2sc3ccccc3c21,-6.2%
Cc1ccc2[nH]c(=O)c3cc(C(=O)NCCCN4CCC(C)CC4)sc3c2c1,-15.0%
N#Cc1c(Nc2cccc(F)c2)sc(C(=O)c2ccc(Cl)cc2)c1N,-11.8%
CCCS(=O)(=O)N1CCC(N2CCN(Cc3ccc(C)cc3)C(=O)C2=O)CC1,-1.5%
CCOC(=O)c1ccc(NC(=O)CCCc2nc(-c3cc(OC)c(OC)c(OC)c3)no2)cc1,8.4%
Cc1ccc(NC(=O)CN2C(=O)C(C)(C)c3cc(S(=O)(=O)N4CCCCC4)ccc32)c(Br)c1,16.1%
COC(=O)COc1ccc(Oc2nc(NC(C)(C)C)nc(N3CCOCC3)n2)nn1,-1.5%
Cc1ccc(CNC(=O)CCCn2c(=O)c3ccccc3n(Cc3ccccc3C)c2=O)cc1,-3.6%
CCOc1ccc(C2=NC(c3cccs3)=Nc3ccc(C(C)C)cc3N2)cc1,-45.3%
SMILES,miR-21 FLuc
CCc1ccc(NC(=O)CSc2ccc(-c3sc(-c4ccccc4)nc3C)nn2)cc1,-3.9%
Cn1c(=O)c2c(-c3ccccc3)n3c(c2n(C)c1=O)C(c1ccccc1[N+](=O)[O-])Nc1ccccc1-3 (stereo not drawn),-8.2%
COc1ccc2oc(=O)c(C(=O)NCCc3c(C)[nH]c4ccc(C)cc34)cc2c1,13.4%
CCC(=O)N1CCc2cc(S(=O)(=O)NCCC(=O)NCc3ccc(C)cc3)ccc21,-2.5%
CCc1ccc(CNC(=O)c2cc3c(=O)n(CC)c4ccccc4c3s2)cc1,1.6%
COc1ccc(CCNC(=O)CN2C(=O)COc3ccccc32)cc1OC,-2.3%
CCC(CC)C(=O)Nc1ccc2nc(SCc3ccccc3)sc2c1,1.4%
COc1ccccc1-n1c(=O)n(C)c2c(C(N)=O)nc(-c3cccc(OC)c3OC)nc21,-3.0%
O=C(Nc1ccccc1OCc1cc(=O)n2ccccc2n1)c1ccccc1F,11.4%
CCCN(CCC)C(=O)CN1C(=O)CSc2ccc(S(=O)(=O)N3CCC(C)CC3)cc21,0.2%
Nc1nc(Nc2ccccc2F)sc1C(=O)c1ccc(Cl)cc1,-32.2%
Cc1cccc(Cn2c(-c3cccs3)nc3ccccc32)c1,11.1%
CCOc1ccc(C2CC(=O)c3c([nH]c(C(=O)OC4CCCCCC4)c3C)C2)cc1 (stereo not drawn),-2.0%
Nc1c(C(=O)Nc2ccccc2Cl)c2ccccn2c1C(=O)c1ccccc1,-8.8%
COc1cccc(Nc2nc3cc(C)ccc3nc2NS(=O)(=O)c2ccc(Cl)cc2)c1,19.0%
O=S(=O)(NCc1csc(-c2ccccc2)n1)c1cccc(F)c1,-13.2%
COc1cc(Cl)c(C)cc1Nc1nc2ccccc2n2cnnc12,-6.1%
Cc1ccc(-n2ncc3c(NCC(C)C)ncnc32)c(C)c1,8.1%
COc1ccc(-c2c(C#N)c(SCC(=O)Nc3ccc(C)cc3)nc(C)c2C(=O)Nc2ccccc2)cc1,0.3%
CCCS(=O)(=O)Nc1cccc(-c2cn3ccc(C)cc3n2)c1,-18.5%
Cc1ccc(Cl)cc1N1CCN(C(=O)c2cc3c(-c4ccccc4F)nn(C)c3s2)CC1,-2.5%
COc1cc(-c2noc(-c3ccc(NCC4CCCO4)c([N+](=O)[O-])c3)n2)cc(OC)c1OC (stereo not drawn),-14.7%
O=c1c2cc3c(cc2nc2sc(Nc4ccc(F)c(Cl)c4)nn12)OCO3,-4.4%
CCCN(C(=O)CCn1cnc2onc(-c3ccc(F)cc3)c2c1=O)c1ccccc1C,17.4%
Cc1ccc2oc(=O)c3cc(C(=O)NCCCOC(C)C)sc3c2c1,3.8%
SMILES,miR-21 FLuc
COc1ccc(CNC(=O)CCCn2c(=O)c3cccn3c3ccc(F)cc32)cc1OC,-3.1%
CCC(=O)N1CCc2cc(S(=O)(=O)NCCC(=O)NC(C)c3ccccc3)ccc21 (stereo not drawn),-12.9%
O=C(NCc1ccco1)c1ccc2c(c1)N(Cc1ccccc1F)C(=O)c1ccccc1S2(=O)=O,1.2%
COc1ccc2c(c1)cc(CNc1ccc(OC)c(OC)c1)c(=O)n2CC(=O)Nc1ccccc1C,2.3%
CC(C)Cn1nc(NC(=O)c2cccc(Cl)c2)c2cc3ccccc3nc21,-7.0%
Cc1cc(C)cc(-n2ccnc(NCc3ccc(F)cc3)c2=O)c1,-1.4%
Cc1ccc(C)c(NC(=O)CCc2c(C)nn(-c3ccc(N4CCCC4)nn3)c2C)c1,3.8%
O=C(Cn1c(=O)n(CC2CCC(C(=O)NCCc3ccccc3)CC2)c(=O)c2ccccc21)Nc1cccc(F)c1 (stereo not drawn),-1.9%
O=c1c2sc3ccccc3c2n(Cc2ccccc2)c(=O)n1CCc1ccccc1,-11.1%
C#CCSc1nc(-c2ccccc2)c2cc(Cl)ccc2n1,-3.1%
Cn1c2ccccc2c2cnn(CC(=O)NCc3ccc(Cl)cc3)c(=O)c21,-4.4%
CCCOC(=O)c1c(C)oc2c1cc(NS(=O)(=O)c1ccc(OCC)cc1)c1ccccc12,29.8%
O=C(Nc1cccc(F)c1)C1CCN(S(=O)(=O)c2ccc3[nH]c4c(c3c2)CCCCC4)CC1,?
CC(C)CCn1c(=O)c2sccc2n2c(CCCC(=O)NCCc3ccccc3)nnc12,5.8%

# From PubChem BioAssay
